# motility = Vibrio cholerae motility inhibitors, OD read-out (AID 588778) | Vibrio cholerae motility, OD read-out; higher % means a stronger effect; test concentration not given here; primary cut-off and reference of the scale not given here; strong numbers were not always called active | 10,000 tested, under 10 active | inhibition, %; hits with a dose series show IC50 in µg/mL; in the data active means confirmed in a dose series
# motility viability = also measured in motility; calls as there; inhibition, %; measured here: bacterial viability at 10 ug/mL;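 higher means fewer living bacteria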
# The depositor's hits bear a star. Some of the compounds tested (hit frequency here may not be typical).
SMILES,motility,motility viability
O=C(O)c1cccnc1Nc1cccc(C(F)(F)F)c1 (tested in a mixture with another compound),-16.5%,-15.9

# High-throughput results from PubChem BioAssay.
